# miR-21 FLuc – raises the signal of a miR-21 reporter. HeLa miR-21 FLuc reporter, luciferase, 48 h. Potency, µM (top dose mostly 38.3 µM), for inactives: top-dose reporter change, positive = more light. 340,000 tested, under 10 active. AID 2288; active = well fitted rising curve with a large enough effect; inconclusive = small, poorly fitted or top-dose-only effect; inactive = no such curve, though single readings can be large or run the other way;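 further: % of control where 0% means no effect; miR-21 action dims this reporter so a rising signal means less miR-21 action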
#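 HeLa miR-21-FLuc reporter line, endogenous miR-21; 2000 cells/well in DMEM/10% FBS; compound titration up to ~40uM final, 48 h, 37 degree Celsius; luciferase detection reagent, 15 min lysis, CCD luminescence.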
# Starred values were filed as active, the others as inactive; ? = inconclusive; [ ] = remark or other dose. Some of the compounds tested; count on the stated rates, not on these rows.
miR-21 FLuc | mol
17.0% | Cn1cc(-c2cc3n(n2)CCC(=O)N3CCCC(=O)NCc2ccc(F)cc2)c2ccccc21
1.1% | Cc1ccc(N2CC(NC(=O)CCc3ccccc3)CC2=O)cc1 (stereo unspecified)
11.1% | Cc1ccc(-n2nc(CO)c(C(=O)NCc3ccccn3)n2)cc1
-5.2% | CCOc1ccc(-n2c(=O)c3c(C)c(C(=O)N(C)C)sc3n(Cc3cc(C)ccc3C)c2=O)cc1
28.1% | COc1ccc(OC)c(NC(=O)CSc2c3c(nc4ccccc24)CCCC3)c1
0.2% | Cc1cccc(N2CCn3c2nc2c3c(=O)n(C/C=C/c3ccccc3)c(=O)n2C)c1
-1.4% | Cc1ccc(S(=O)(=O)c2nnn3c2nc(N2CCN(c4ccccc4F)CC2)c2ccccc23)cc1C
4.5% | CCOC(=O)c1cccc(NC(=O)Nc2c(C)n(C)n(-c3ccccc3)c2=O)c1
-2.4% | CCCn1ccc2c(OCC(=O)NCc3ccc(F)cc3)cccc2c1=O
2.4% | CCCCOc1ccc(C(=O)Nc2ccc3oc(-c4cccnc4)nc3c2)cc1
-9.6% | Oc1ccccc1Nc1nc(-c2ccccc2)c2cc(Cl)ccc2n1
-66.0% | CCCCCc1ccc(-c2ccc(Br)cc2)nc1
-4.3% | COC(=O)c1nnn(-c2cccc(C)c2)c1C(=O)OC
-1.6% | CCOC(=O)c1ccccc1NC(=O)CSc1c(C)cnc2c1c(=O)n(C)c(=O)n2C
-0.3% | CCSc1ncc(Cl)c(C(=O)Nc2c(C(=O)Nc3cccc(C)c3)oc3ccccc23)n1
-2.8% | COc1ccccc1-c1c(C)nn2c(N3CCN(c4ccc(F)cc4)CC3)cc(C)nc12
-12.2% | Cc1ccc(-c2nnc(C3CCN(S(=O)(=O)c4ccc(C)c(C)c4)CC3)o2)cc1
3.8% | CC1CCN(S(=O)(=O)c2ccc3c(c2)CCN3C(=O)Nc2cccc(Br)c2)CC1
-0.1% | CCCN(C(=O)Cc1c(C(=O)O)[nH]c2ccc(Cl)cc12)c1ccc(OCC)cc1
-24.4% | COc1ccc(-c2cn3nc(N4CCC(C(=O)Nc5cc(Cl)ccc5C)CC4)sc3n2)cc1
? | CCC(C)n1c(SCc2ccc(F)cc2Cl)nc2ccsc2c1=O (stereo unspecified)
-0.6% | Cc1ccc(C(=O)N2CCN(CCc3ccncc3)CC2)cc1
-54.9% | Cc1ccnc(NC(=O)c2c(C)oc3ncn(CC(C)C)c(=O)c23)c1
? | COc1ccc(CCNC(=O)CCc2c(C)nc3cc(-c4ccccc4)nn3c2C)cc1OC
-2.2% | CCN(CC)c1nn2c(=O)c(C(=O)NCc3ccc(N(C)C)cc3)cnc2s1
5.3% | O=C1CC(c2nnc(Cc3ccc(Cl)cc3)o2)CN1c1ccccc1 (stereo unspecified)
0.1% | O=C(Cn1c(=O)n(Cc2ccc(Cl)cc2)c(=O)c2cccnc21)Nc1ccccc1C(F)(F)F
-0.1% | COc1cccc(CN(C(=O)c2cccc(C)c2)C2CCS(=O)(=O)C2)c1 (stereo unspecified)
-0.3% | O=C(CSc1nc(-c2ccccc2)nc2c1Cc1ccccc1O2)N1CCCCC1
17.6% | Cc1cccc(Cn2c(SCc3ccc(C(=O)NCc4cccs4)cc3)nc3ccncc32)c1

# Retrieved by structure from the entries so far:
miR-21 FLuc | mol
-2.8% | COc1ccccc1-c1c(C)nn2c(N3CCN(c4ccc(F)cc4)CC3)cc(C)nc12
-0.3% | O=C(CSc1nc(-c2ccccc2)nc2c1Cc1ccccc1O2)N1CCCCC1

# Following part.
miR-21 FLuc | mol
6.9% | COc1ccc(C)cc1NS(=O)(=O)c1cc(Br)cc2c1N(C(C)=O)C(C)C2 (stereo unspecified)
19.1% | COc1ccc(CNC(=O)c2sc3nc4n(c(=O)c3c2C)CCCC4)cc1
2.5% | CCN(CC)CCCNC(=O)c1nn(C)c2c1CS(=O)(=O)c1ccccc1-2
-1.5% | Cc1nc2c(-c3ccccc3)c(C)nn2c(C)c1CCC(=O)NCc1ccc(F)cc1
-10.3% | Cc1ccc(S(=O)(=O)N(CC(=O)Nc2ccc3c(c2)OCO3)c2cc(Cl)cc(Cl)c2)cc1
-5.9%[7.66 µM] | COc1ccc2c3c(c(=O)oc2c1)C1O[C@](c2ccsc2)(Cc2cc(C#N)ccc21)O3
-46.0% | COc1ccc(NC(=O)c2nnn(CC(=O)Nc3cccc(C)c3C)c2N)c(OC)c1
3.1% | O=C(NCc1cccc(Cl)c1)c1cccn1-c1nnc(N2CCCC2)s1
-20.1% | Cc1c(Cl)cccc1Nc1nn2c(=O)c3ccccc3nc2s1
3.3% | Cc1cccn2c(=O)c(/C=C(\C#N)c3nc4ccccc4n3C)c(Oc3ccc(Br)cc3)nc12
-9.9% | CCOC(=O)C1CCCN(c2c(C(=O)c3ccccc3)cnc3ccc(F)cc23)C1 (stereo unspecified)
21.4% | CCN(c1ccccc1)S(=O)(=O)c1cc(-c2onc(C)c2C)ccc1OC
13.9% | Cc1ccc(NC(=O)C2CCC(CNS(=O)(=O)c3ccc4c(c3)CCCC(=O)N4)CC2)c(C)c1 (stereo unspecified)
-2.6% | O=C(Cn1c(=O)n(-c2ccc(F)cc2)c(=O)c2sc3ccccc3c21)NC1CCCC1
21.8% | COc1cccc(N2CCN(c3ncc4c(n3)CCN(Cc3ccc(Br)cc3)C4)CC2)c1
25.2% | Cc1ccc(C)c(CN2C(=O)C(O)(c3c(C)[nH]c4ccccc34)c3ccccc32)c1 (stereo unspecified)
3.0% | Cc1ccc(-n2nc(C(=O)N(C)c3ccc(C)c(C)c3)c3c4ccccc4n(C)c3c2=O)cc1
0.1% | CN1C(C(=O)c2ccccc2)=C(NC(=O)c2ccccc2Br)c2ccccc2S1(=O)=O
? | CCN(CC)S(=O)(=O)c1ccc(C(=O)NCCSc2c(-c3ccccc3)[nH]c3ccccc23)cc1
-0.4% | O=C(Nc1cccc(C(=O)OCc2cc(=O)n3c4c(sc3n2)CCCC4)c1)c1cccc(F)c1
-23.7% | CCc1ccc(C2c3c(-c4cc(C)ccc4O)n[nH]c3C(=O)N2CCO)cc1 (stereo unspecified)
12.2% | CCc1ccc(NC(=O)C2CCN(S(=O)(=O)c3ccc4[nH]c5c(c4c3)CCCCC5)CC2)cc1
-2.3% | Cn1nc(-c2ccc(C(=O)Nc3ccc(OC(F)(F)F)cc3)cc2)c2ccccc2c1=O
0.5% | COc1ccc(NC(=O)c2nc(SCc3ccc(F)cc3)ncc2Cl)cc1
-32.6% | Cc1cccc(C)c1OCc1cc(=O)n2ccsc2n1
-0.3% | COC(=O)c1ccc(NC(=O)C(=O)NCCc2sc(-c3cccc(F)c3)nc2C)cc1
-1.4% | O=C(CSc1nccn1-c1ccc(Cl)cc1)Nc1ccc(Cl)c(Cl)c1
-7.8% | Cn1c(=O)n(C)c2cc(CNCc3ccc(F)cc3)ccc21
-0.5% | COC(=O)c1cc2sc(Cl)cc2n1Cc1cc(C)ccc1C
-51.0% | O=C1c2[nH]nc(-c3ccccc3O)c2C(c2cccc(OCc3ccccc3)c2)N1CCO (stereo unspecified)

# Next part.
miR-21 FLuc | mol
-41.7% | Cc1ccc2[nH]c(C(=O)Nc3ccccc3)cc2c1
-0.8% | CC1Cc2cc(S(=O)(=O)NCc3ccc(Cl)cc3)ccc2N1C(=O)C1CCC1 (stereo unspecified)
0.4% | O=C(Cn1ncc2c3ccccc3n(Cc3ccccc3)c2c1=O)NCc1ccccc1
16.9% | Cc1ccc2nc(-c3ccc(C)o3)c(Nc3ccc4c(c3)OCCO4)n2c1
2.7% | N#Cc1c[nH]n2c(NC3CCCCC3)c(-c3cccc(Cl)c3)nc12
1.3% | Cc1ccc(NC(=O)c2cc(S(=O)(=O)N3CCCCCC3)ccc2F)cc1F
-1.0% | Cc1cc(C)n(-c2nc(C)c(C)c(=O)n2CC(=O)Nc2ccc(OC(F)(F)F)cc2)n1
? | COc1ccc(-c2nc(CSCC(=O)N3CCN(c4cc(Cl)ccc4C)CC3)c(C)o2)cc1
-12.0% | Cc1ccc(-n2ncc3c(N4CCN(Cc5ccccc5)CC4)ncnc32)cc1Cl
0.3% | Cc1cc(C)cc(NC(=O)c2cc(C)nc3c2c(C)nn3-c2ccccc2)c1
3.5% | COc1cccc(-n2ccn(CC(=O)Nc3ccccc3F)c(=O)c2=O)c1
3.1% | COC(=O)CNC(=O)Nc1cc(C(=O)NCc2ccc(C)cc2)ccc1N1CCCC1
8.3% | O=C(c1ccc2c(c1)N(Cc1ccccc1F)C(=O)c1ccccc1S2(=O)=O)N1CCN(c2ccccc2F)CC1
14.6% | O=C(Cc1ccccc1)N(Cc1cccnc1)c1nc2c(Cl)cccc2s1
12.4% | CCOCCCn1c(SCC(=O)Nc2ccccc2OC)nc2c(oc3ccccc32)c1=O
-4.4% | Cc1ccc(NC(=O)C2CCN(S(=O)(=O)c3c(C)noc3/C=C/c3ccco3)CC2)cc1C
2.0% | CCn1c(=O)cc(OCC(=O)Nc2cc(OC)c(OC)c(OC)c2)c2ccccc21
2.0% | COc1ccc2oc(=O)cc(CN3CCN(C(=O)c4ccccc4)CC3)c2c1
-10.0% | Cc1c(C(=O)Nc2cc(F)ccc2F)sc2nc(-c3ccc(F)cc3)cn12
-11.3% | COC(=O)c1sccc1S(=O)(=O)N(CC(=O)Nc1cc(F)ccc1F)c1ccc(C)c(C)c1
-2.1% | COc1cccc(NC(=O)c2c(C(=O)Nc3ccccc3)sc3nc(C)cc(=O)n23)c1
-2.0% | N#Cc1ccc(NC(=O)c2cc(-c3cccc(Cl)c3)on2)cc1
-0.3% | Cc1ccc(NC(=O)Cn2nc(C(F)(F)F)c3c2CCCC3)cc1C
-7.1% | COc1ccc(Cn2cc(S(=O)(=O)c3ccc(Cl)cc3)c(=O)c3cc4c(cc32)OCO4)cc1
? | Cc1ccc(-c2c(C(=O)N3CCN(c4cccc(C)c4)C(C)C3)oc(=O)c3ccccc23)cc1 (stereo unspecified)
? | Cc1cccc(C(=O)N2CCc3cc(CNC(=O)COc4ccc(Cl)cc4)ccc32)c1
11.4% | COc1ccc(C)cc1NC(=O)NC(C)c1c(-n2cccc2)sc(C)c1C (stereo unspecified)
20.6% | COC(=O)c1ccc(CSc2nc3c([nH]c4ccccc43)c(=O)n2-c2cccc(OC)c2)o1
-2.9% | COC(=O)c1sccc1S(=O)(=O)N(CC(=O)NCc1ccc(C)cc1)c1ccc(C)c(C)c1
-1.0% | NC(=O)Cn1c(=O)n(CCCCCC(=O)NCc2ccccc2)c(=O)c2sccc21

# Given with bars between the fields: five of the compounds above
canonical_smiles | miR-21 FLuc
COc1ccc(-c2cn3nc(N4CCC(C(=O)Nc5cc(Cl)ccc5C)CC4)sc3n2)cc1 | -24.4%
CCC(C)n1c(SCc2ccc(F)cc2Cl)nc2ccsc2c1=O (stereo unspecified) | ?
Cc1ccc(C(=O)N2CCN(CCc3ccncc3)CC2)cc1 | -0.6%
Cc1ccnc(NC(=O)c2c(C)oc3ncn(CC(C)C)c(=O)c23)c1 | -54.9%
COc1ccc(CCNC(=O)CCc2c(C)nc3cc(-c4ccccc4)nn3c2C)cc1OC | ?

# The listing continues.
miR-21 FLuc | mol
? | CCN(CC)CCCNC(=O)c1sc2nc3n(c(=O)c2c1C)CCCCC3
2.8% | CCN1C(=O)C(O)(c2c(C)[nH]c3ccccc23)c2ccccc21 (stereo unspecified)
2.6% | COc1ccc(OC)c2sc(N3CCN(C(=O)C4COc5ccccc5O4)CC3)nc12 (stereo unspecified)
-1.8% | Cc1cn2c(=O)cc(COc3cccc(NC(=O)c4cccc(F)c4)c3)nc2s1
-4.2% | CCOc1ccc(N(CC)S(=O)(=O)N2CCCC(C(=O)Nc3ccc(OC)c(OC)c3)C2)cc1 (stereo unspecified)
-3.3% | Cc1cc2oc(C(=O)N(Cc3ccccc3F)C3CCS(=O)(=O)C3)c(C)c2cc1Cl (stereo unspecified)
-31.1% | COc1cccc(CNC(=O)c2oc3ccc4c(c3c2C)C(=O)CC(C)(C)O4)c1OC
-4.3% | COc1cc(NS(=O)(=O)c2ccc3c(c2)CC(=O)N3)cc(OC)c1OC
0.4% | O=c1c2cc3c(cc2n(Cc2cccc(Cl)c2)c(=O)n1Cc1nc(-c2ccccc2)no1)OCO3
12.8% | Cn1cc(S(=O)(=O)N2CCOCC2)cc1C(=O)Nc1ccc(Cl)c(C(F)(F)F)c1
-4.0% | CCCCOc1ccc(CNC(=O)c2cnc3sc(N4CCCCCC4)nn3c2=O)cc1
1.5% | Cc1cc(C)cc(NC(=O)Cn2c(C(F)(F)F)nc3ccccc32)c1
-40.7% | COc1ccc(-c2nc3cc(C(C)C)ccc3o2)cc1NC(=O)c1ccccc1[N+](=O)[O-]
0.1% | CCOc1ccc(CCNC(=O)c2oc(=O)c3ccccc3c2-c2ccc(C)cc2)cc1OCC
-13.9% | COc1ccc(-n2nc(C(=O)N3CCN(c4ccccc4OC)CC3)c3c4ccccc4n(C)c3c2=O)cc1Cl
-34.7% | CCCOc1cccc(C(=O)Nc2cccc(NC(=O)c3ccc(C(C)(C)C)cc3)c2)c1
18.8% | Cc1ccc(-n2ncc(C(=O)NCCN3CCc4ccccc4C3)c2C2CCN(C(=O)OC(C)(C)C)CC2)cc1C
28.2% | CC(CNC(=O)Cn1ccc2cc(S(=O)(=O)N3CCCCCC3)ccc21)c1ccccc1 (stereo unspecified)
17.1% | O=C(CSc1nccn1Cc1ccc(F)cc1)Nc1nc2ccccc2s1
2.5% | CCN(CC)C(=O)C1CCCN(c2ncnc3onc(C)c23)C1 (stereo unspecified)
-7.6% | CCOC(=O)c1c(C)[nH]c(C)c1S(=O)(=O)N1CCC(C(=O)Nc2ccc(OC)c(OC)c2)CC1

# Sorted by length of the SMILES (descending): some entries from above
miR-21 FLuc | mol
-4.2% | CCOc1ccc(N(CC)S(=O)(=O)N2CCCC(C(=O)Nc3ccc(OC)c(OC)c3)C2)cc1 (stereo unspecified)
-4.0% | CCCCOc1ccc(CNC(=O)c2cnc3sc(N4CCCCCC4)nn3c2=O)cc1
? | CCN(CC)CCCNC(=O)c1sc2nc3n(c(=O)c2c1C)CCCCC3
17.1% | O=C(CSc1nccn1Cc1ccc(F)cc1)Nc1nc2ccccc2s1
